DUX4 txn inh: blocks DUX4-driven transcriptional activation; activity change, negative = inhibition, % (concentration not given with the values); 293T-iDUX4 ZSCAN4-Gaussia luciferase reporter, 24 h; active compounds read low; 37,000 compounds, 0.8% hits;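 active means -10% or lower and over 25 points stronger than a control reporter; inconclusive means -10% or lower with a smaller gap; inactive means above -10%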;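 further: 0% = median of neutral control wells and -100% = median of positive control wells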
DUX4 txn inh difference: second read-out of DUX4 txn inh, no call of its own (marks repeat the call); Gaussia minus Italica difference, %; measured here: selective DUX4 reporter inhibition;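 worked out from the two reporters; negative = selective loss of the DUX4 reporter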
DUX4 txn inh control: recorded beside DUX4 txn inh, whose call it bears; activity change, negative = inhibition, %; measured here: Italica tet-on control reporter;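 0 = neutral control and -100 = positive control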
Active calls of the source: *; ? = inconclusive; nt = not tested or not shown; & = joins results of further samples. These rows are one share of the data, so the mix of outcomes need not match the whole.

DUX4 txn inh	DUX4 txn inh difference	DUX4 txn inh control	mol
5	7	-1.3	CCCNC(=O)N1CC(=O)N2[C@@H](CO)[C@H](c3ccc(-c4cccc(C)c4)cc3)[C@@H]2C1
-9	-6	-3.2	O=C(c1ccccc1)N1CC2(C1)[C@@H](c1ccccc1)[C@@H](CO)N2Cc1cc(F)ccc1F
-1	0	-0.7	CN1C(=O)c2cc(NC(=O)Cc3cccs3)ccc2OC[C@H]2O[C@H](CC(=O)NCc3ccc(-c4ccccc4)cc3)CC[C@@H]21
-3	-4	1.5	COc1ccc(C#Cc2cnc3c(c2)C(=O)N([C@@H](C)CO)C[C@@H](C)[C@@H](CN(C)CC2CC2)O3)cc1
-4	-9	5.1	O=C(C[C@@H]1C[C@@H]2c3cc(NS(=O)(=O)c4ccccc4)ccc3O[C@@H]2[C@@H](CO)O1)N1CCOCC1
6	-7	14	O=C(C1CCOCC1)N1CC(=O)N2[C@H](C1)[C@H](c1ccc(Br)cc1)[C@@H]2CO
5	4	1.1	N#C[C@@H]1[C@@H](c2ccc(C#CC3CC3)cc2)[C@H](CO)N1C(=O)Cc1ccccn1
0	1	-0.9	CN1c2ccc(Br)cc2[C@@H]2[C@@H](CCN2C(=O)CN2CCOCC2)[C@@H]1CO
6	0	5.5	C[C@@H](NC(=O)C[C@@H]1C[C@@H]2c3cc(NC(=O)CN(C)C)ccc3O[C@@H]2[C@@H](CO)O1)c1ccccc1
-4	-5	0.6	CN(C)CC(=O)N1[C@@H]2c3ccc(-c4ccccc4)c(=O)n3C[C@@H]2[C@@H](CO)[C@@H]1C(=O)NC1CCC1
0	-3	2.8	COc1ccc(S(=O)(=O)Nc2cccc3c2O[C@@H](CN(C)S(=O)(=O)c2cn(C)cn2)[C@@H](C)CN([C@@H](C)CO)C3=O)cc1
2	-7	8.7	C[C@@H]1CN([C@H](C)CO)C(=O)CCCn2nncc2CO[C@@H]1CN(C)C(=O)Cc1ccccc1
-2	-22	20	CCCC#Cc1ccc([C@@H]2[C@H](CO)N3CCCCN(CC4CCOCC4)C[C@@H]23)cc1
-4	-6	2.0	CO[C@H]1CN(C)C(=O)c2ccc(NC(=O)Cc3ccccc3)cc2OC[C@H](C)N(CC2CC2)C[C@@H]1C
0	0	-0.8	OC[C@H]1[C@@H]2c3ccccc3NC[C@@H]2N1Cc1ccccc1Cl
7	-3	10	COc1ccc2c3c([nH]c2c1)[C@H](CO)N(C(=O)C1CCC1)CC31CCN(C(=O)c2ccccn2)CC1
0	-5	4.8	C[C@@H]1CN([C@@H](C)CO)C(=O)c2cc(NS(=O)(=O)c3cn(C)cn3)ccc2O[C@@H](C)CCCCO[C@H]1CN(C)C(=O)CCCN(C)C
-8	-13	5.6	O=C(c1ccc2c(c1)OCO2)N1CC[C@@H]2[C@H]1c1cc(C#Cc3ccccc3)ccc1N[C@@H]2CO
17	23	-6.1	COc1ccccc1-c1ccc(C2[C@H]3CNC[C@@H]2N3Cc2ccc(F)cc2)cc1 (stereo not given in full)
1	-2	3.5	CCCNC(=O)[C@H]1[C@H](CO)[C@H]2Cn3c(ccc(C4=CCCCC4)c3=O)[C@@H]1N2Cc1cocn1
0	-6	5.9	C[C@@H]1CCCCO[C@@H](CN(C)S(=O)(=O)c2cccs2)[C@H](C)CN([C@H](C)CO)C(=O)c2cc(N(C)C)ccc2O1
10	11	-0.5	CN1[C@@H]2Cn3c(ccc(-c4ccccc4)c3=O)[C@H]1[C@@H](C(=O)NCCCN1CCOCC1)[C@@H]2CO
-2	-3	1.3	O=C(NCc1ccccc1)[C@H]1[C@H](CO)[C@H]2Cn3c(cccc3=O)[C@@H]1N2
1	-2	3.1	C[C@H]1CC(=O)N[C@H](c2ccccc2)C/C=C\C[C@H](c2ccc3c(c2)OCO3)NC1=O
4	6	-2.5	COCCNC(=O)C[C@@H]1C[C@H]2c3cc(NS(=O)(=O)c4ccccc4)ccc3O[C@H]2[C@@H](CO)O1
9	3	5.9	O=C(O)C[C@H]1C[C@@H]2c3cc(NC(=O)Cc4ccncc4)ccc3O[C@@H]2[C@@H](CO)O1
-1&-7	-8&8	6.5&-15	Cc1ccc(S(=O)(=O)N2[C@@H]3CNC[C@H]2C3c2ccc(-c3cccc(C#N)c3)cc2)cc1 (stereo not given in full)
7	6	1.3	COc1ccc(-c2ccc3c(c2)[C@H]2[C@H](CCN2Cc2ccncc2)[C@@H](CO)N3)cc1
2	2	0.4	CCCN1C[C@H](C)[C@H](OC)CN(C)C(=O)c2cc(NC(=O)c3ccccc3F)ccc2OC[C@@H]1C
2	2	0.2	Cc1noc(C)c1NC(=O)Nc1ccc2c(c1)C(=O)N([C@@H](C)CO)C[C@H](C)[C@@H](CN(C)S(=O)(=O)c1cccs1)OCCCC[C@@H](C)O2

Reprinted from the part before: three compounds, then new ones.
DUX4 txn inh	DUX4 txn inh difference	DUX4 txn inh control	mol
7	6	1.3	COc1ccc(-c2ccc3c(c2)[C@H]2[C@H](CCN2Cc2ccncc2)[C@@H](CO)N3)cc1
2	2	0.4	CCCN1C[C@H](C)[C@H](OC)CN(C)C(=O)c2cc(NC(=O)c3ccccc3F)ccc2OC[C@@H]1C
2	2	0.2	Cc1noc(C)c1NC(=O)Nc1ccc2c(c1)C(=O)N([C@@H](C)CO)C[C@H](C)[C@@H](CN(C)S(=O)(=O)c1cccs1)OCCCC[C@@H](C)O2
-5	-7	1.5	CC(C)NC(=O)N(C)C[C@H]1Oc2cc(-c3ccccc3)ccc2S(=O)(=O)N([C@@H](C)CO)C[C@@H]1C
6	4	1.3	C[C@H]1CN([C@@H](C)CO)C(=O)CCCn2cc(nn2)CO[C@@H]1CN(C)C(=O)Nc1ccccc1
-1	0	-1.3	O=S(=O)(c1ccccc1)N1[C@H](CO)[C@@H]2c3ccccc3NC[C@@H]21
7	7	0.3	CS(=O)(=O)Nc1ccc2c(c1)[C@H]1C[C@H](CC(=O)NCCN3CCCCC3)O[C@H](CO)[C@H]1O2
3	-2	4.1	CCC(=O)N1CC(=O)N2[C@@H](CO)[C@@H](c3ccc(-c4ccc(C#N)cc4)cc3)[C@@H]2C1
-4	0	-4.4	CCCNC(=O)N(Cc1cccnc1)C[C@H]1N[C@H](CO)[C@@H]1c1ccccc1
?	nt	nt	COc1ccccc1C#Cc1ccc([C@H]2[C@H](CO)N3CCCCN(S(C)(=O)=O)C[C@@H]23)cc1
4	-1	4.1	C[C@@H]1CN([C@H](C)CO)S(=O)(=O)c2ccc(-c3cccnc3)cc2O[C@H]1CN(C)C(=O)CC1CC1
27	16	11	O=C(Nc1ccc(F)cc1)N1CCCCN2[C@@H](CO)[C@H](c3ccc(C#Cc4ccccn4)cc3)[C@@H]2C1
6	-8	14	C[C@H]1CN([C@@H](C)CO)C(=O)c2c(c3ccccc3n2C)-c2ccccc2CO[C@H]1CN(C)C
9	4	4.9	Cc1cccc(S(=O)(=O)N2CC[C@H]3[C@H](CO)Nc4ccc(C#Cc5cccnc5)cc4[C@H]32)c1
10	6	4.6	O=C(O)C[C@@H]1C[C@@H]2c3cc(NC(=O)NC4CCCC4)ccc3O[C@@H]2[C@@H](CO)O1
-2	-8	5.5	CCCNC(=O)N1C[C@@H](O)COC[C@H]2O[C@@H](CC(=O)NCCCN3CCOCC3)CC[C@@H]21
9	3	6.5	O=C(C[C@@H]1CC[C@H]2[C@@H](COC[C@H](O)CN2Cc2nccs2)O1)NCc1ccccc1F
4	2	1.6	O=C(NCc1ccncn1)[C@H]1[C@H](CO)[C@H]2Cn3c(ccc(-c4ccncc4)c3=O)[C@H]2N1CC1CC1
4	2	1.5	CC=Cc1ccc2n(c1=O)C[C@@H]1[C@@H](CO)[C@H](C(=O)NC3CCC3)N(Cc3ccncc3)[C@H]21 (mixture of isomers)
9	9	0.0	COc1ccc(NC(=O)N[C@H]2CC[C@@H](CCNC(=O)CN3CCOCC3)O[C@H]2CO)cc1
-6	-7	0.6	COc1ccccc1CNC(=O)C[C@H]1CC[C@H]2[C@H](COc3ccc(NC(C)=O)cc3C(=O)N2C)O1
3	4	-0.9	C[C@H](CO)N1C[C@H](C)[C@H](CN(C)S(=O)(=O)c2ccccc2)Oc2c(NC(=O)c3ccncc3)cccc2C1=O
-2	-3	0.8	O=C(NC[C@@H]1N[C@@H](CO)[C@H]1c1ccc(-c2cccnc2)cc1)c1cccc(F)c1
3	-1	3.6	CCN(C[C@@H]1[C@@H](c2ccccc2)[C@H](CO)N1C(C)=O)C(=O)c1cccc(F)c1
6	0	5.5	COc1ccc(CNC(=O)C[C@@H]2C[C@H]3c4cc(N(C)C)ccc4O[C@H]3[C@@H](CO)O2)cc1
-2	-2	-0.3	C[C@H]1CN([C@@H](C)CO)C(=O)c2ccccc2-c2ccccc2CO[C@H]1CN(C)C(=O)CCN(C)C
-7	-15	7.9	C[C@@H]1CN([C@H](C)CO)C(=O)CCCn2cc(nn2)CO[C@@H]1CN(C)Cc1ccc2cccnc2c1
-3	-4	0.1	COc1ccc2c3c(n(C)c2c1)[C@H](CO)N(C(C)=O)CC31CN(Cc2ccc(Cl)cc2)C1
-5	3	-8.3	O=C(C[C@@H]1CC[C@H](NC(=O)C2CCC2)[C@@H](CO)O1)NCc1ccncc1
1	4	-2.5	O=C(CCN1CCCCC1)NCC[C@H]1CC[C@H](NC(=O)Cc2cccnc2)[C@H](CO)O1
-5	-4	-0.9	COc1cccc(C#Cc2cnc3c(c2)C(=O)N([C@H](C)CO)C[C@H](C)[C@@H](CN(C)C(=O)C2CCCCC2)O3)c1
?	nt	nt	CC(C)NC(=O)N1CCCCN2[C@H](C1)[C@@H](c1ccc(C#Cc3ccccc3)cc1)[C@@H]2CO
?	nt	nt	O=C(Nc1ccc2c(c1)[C@@H]1C[C@H](CC(=O)N3CCc4ccccc4C3)O[C@@H](CO)[C@@H]1O2)Nc1ccccc1F
0	-3	3.1	CN1C(=O)c2cc(NC(=O)c3cnccn3)ccc2OC[C@H]2O[C@@H](CC(=O)Nc3cc(F)ccc3F)CC[C@@H]21
9	-1	9.8	CCCNC(=O)N1CC2(C1)[C@H](c1ccccc1)[C@@H](CO)N2C(=O)C1CCCC1
9	4	4.9	C[C@@H]1CN([C@@H](C)CO)C(=O)c2ccccc2-c2ccccc2CO[C@H]1CN(C)C(=O)[C@H](C)c1ccccc1
1	0	0.7	O=C1CCCn2cc(nn2)COC[C@@H](c2ccccc2)N1
-3	-1	-1.4	CC=Cc1ccc2n(c1=O)C[C@@H]1[C@@H](CO)[C@H](C(=O)NCCC)[C@H]2N1Cc1ccccc1OC (mixture of isomers)
-4	-11	6.7	O=C([C@H]1[C@H](CO)[C@H]2Cn3c(cccc3=O)[C@@H]1N2Cc1ccccc1)N1CCCCC1
3	2	0.9	CO[C@@H]1CN(C)C(=O)c2ccc(NC(=O)C3CCC3)cc2OC[C@H](C)N(C(=O)CN(C)C)C[C@H]1C
9	10	-1.4	CS(=O)(=O)Nc1ccc2c(c1)[C@H]1C[C@H](CC(=O)NCC3CC3)O[C@@H](CO)[C@H]1O2
-4	-1	-3.2	CCCC(=O)Nc1ccc2c(c1)C(=O)N(C)[C@@H]1CC[C@H](CC(=O)N3CCCCC3)O[C@H]1CO2
?	nt	nt	CN1c2ccc(-c3ccc(C#N)cc3)cc2[C@H]2[C@H](CCN2S(=O)(=O)c2ccc(F)cc2)[C@@H]1CO
-5	-2	-2.4	CC=Cc1ccc2n(c1=O)C[C@H]1[C@H](CO)[C@@H](C(=O)NCc3ccccc3)N(Cc3cncnc3)[C@@H]21 (mixture of isomers)
5	-5	9.7	Cn1cnc(CCNC(=O)C[C@@H]2CC[C@@H]3[C@H](COC[C@H](O)CN3C(=O)Nc3ccc(C(F)(F)F)cc3)O2)c1
8	5	2.6	COc1ccc2c3c([nH]c2c1)[C@H](CO)N(Cc1nccs1)CC31CN(C(=O)C2CCOCC2)C1
11	7	3.7	C[C@@H](NC(=O)C[C@H]1CC[C@@H]2[C@H](COC[C@@H](O)CN2C)O1)c1ccccc1
7	4	2.9	COc1cccc(CN(C)C[C@H]2OCc3cn(nn3)CCCC(=O)N([C@@H](C)CO)C[C@@H]2C)c1
9	10	-0.7	COc1ccc2c3c(n(C)c2c1)[C@H](CO)N(S(C)(=O)=O)CC31CCN(CC2CCCCC2)CC1
1	-3	4.7	CC=Cc1ccc2n(c1=O)C[C@@H]1[C@@H](CO)[C@H](C(=O)NCCC)[C@H]2N1Cc1cccnc1 (mixture of isomers)
3	3	-0.1	COc1ccc(NC(=O)Nc2ccc3c(c2)C(=O)N([C@@H](C)CO)C[C@@H](C)[C@H](CN(C)S(=O)(=O)c2cn(C)cn2)O3)cc1

Another view of part of the listing above:
Values in the order – DUX4 txn inh, DUX4 txn inh difference, DUX4 txn inh control
COc1ccc2c3c([nH]c2c1)[C@H](CO)N(Cc1nccs1)CC31CN(C(=O)C2CCOCC2)C1
 : 8, 5, 2.6
C[C@@H](NC(=O)C[C@H]1CC[C@@H]2[C@H](COC[C@@H](O)CN2C)O1)c1ccccc1
 : 11, 7, 3.7
COc1cccc(CN(C)C[C@H]2OCc3cn(nn3)CCCC(=O)N([C@@H](C)CO)C[C@@H]2C)c1
 : 7, 4, 2.9
COc1ccc2c3c(n(C)c2c1)[C@H](CO)N(S(C)(=O)=O)CC31CCN(CC2CCCCC2)CC1
 : 9, 10, -0.7
CC=Cc1ccc2n(c1=O)C[C@@H]1[C@@H](CO)[C@H](C(=O)NCCC)[C@H]2N1Cc1cccnc1 (mixture of isomers)
 : 1, -3, 4.7
COc1ccc(NC(=O)Nc2ccc3c(c2)C(=O)N([C@@H](C)CO)C[C@@H](C)[C@H](CN(C)S(=O)(=O)c2cn(C)cn2)O3)cc1
 : 3, 3, -0.1

Of the compounds above, these have a Cl atom.
DUX4 txn inh	DUX4 txn inh difference	DUX4 txn inh control	mol
0	0	-0.8	OC[C@H]1[C@@H]2c3ccccc3NC[C@@H]2N1Cc1ccccc1Cl
-3	-4	0.1	COc1ccc2c3c(n(C)c2c1)[C@H](CO)N(C(C)=O)CC31CN(Cc2ccc(Cl)cc2)C1
